miR-21 FLuc = raises the signal of a miR-21 reporter; HeLa miR-21 FLuc reporter, luciferase, 48 h; AID 2288; Potency, µM (titrated, usually from 38.3 µM), for the others: at the top dose reporter change, positive = more light; 340,000 tested, under 10 active; active = well fitted rising curve with a large enough effect; inconclusive = small, poorly fitted or top-dose-only effect; inactive = no such curve, though single readings can be large or run the other way;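 note: % of control where 0% means no effect; miR-21 action dims this reporter so a rising signal means less miR-21 action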
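Compounds were titrated across several concentrations (up to approximately 40 uM) and incubated 48 hours with HeLa miR-21-FLuc reporter cells (miR-21 target sequence downstream of FLuc, endogenous miR-21). Readout was firefly luciferase luminescence after lytic detection reagent.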
* hit, by the source's call; ? = inconclusive.

SMILES	miR-21 FLuc
Cc1ccc(NC(c2nnc(-c3ccccc3)o2)c2ccccc2F)c(Cl)c1 (stereo not given)	-11%
CCCCCn1c(=O)[nH]c2cc(C(=O)Nc3ccc(OC)c(OC)c3)ccc2c1=O	10%
CC(=O)N1CCCc2ccc(NS(=O)(=O)c3cccc(Cl)c3)cc21	13%
CCOc1ccc(CCNC(=O)c2cnc3sc(N4CCCCC4)nn3c2=O)cc1	1%
CCCCC(=O)Nc1cc(-c2nc3cccnc3s2)ccc1C	6%
Cc1nnc(NC(=O)CSc2nccn2-c2ccc(Cl)cc2)s1	3%
CCOc1ccc2nc(N3CCCC(C(=O)NCc4ccc(OC)cc4)C3)sc2c1 (stereo not given)	-13%
CSc1cccc(NC(=O)C2CCCN(C(=O)c3cnn(-c4ccc(F)cc4)c3-n3cccc3)C2)c1 (stereo not given)	5%

The listing continues.
SMILES	miR-21 FLuc
COc1ccc(-c2cn3nc(N4CCCC(C(=O)Nc5cc(Cl)ccc5OC)C4)sc3n2)cc1 (stereo not given)	0%
Cc1cccc(OCc2ccc(-c3nc(C#N)c(NCCN(C)C)o3)o2)c1	-8%
COc1cc(C2C(C(=O)OCC(C)C)=C(C)N=C3SCCC(=O)N32)ccc1OCc1ccccc1 (stereo not given)	-15%
Cc1ccc(C)c(CN2C(=O)C3(c4ccccc42)N(c2ccc(Cl)cc2)C(=O)CS3(=O)=O)c1 (stereo not given)	5%
COc1ccccc1N1CCN(C(=O)COc2ccccc2C#N)CC1	-6%
CCOc1ccccc1CNCCCSc1nnnn1C	-3%
CCN1CCSc2ccc(C(=O)NC(C)c3ccccc3)cc21 (stereo not given)	-2%
CCOC(=O)c1noc2ncn(CC(=O)Nc3ccc(OC)c(Cl)c3)c(=O)c12	0%

Continued.
SMILES	miR-21 FLuc
CCCCN(CC)CCCNC(=O)c1c(C)oc2ncnc(N3CCOCC3)c12	-2%
CC(C)c1ccc(NC(=O)C2Cc3ccccc3N2C(=O)c2ccccc2)cc1 (stereo not given)	4%
Cc1ccc(CNC(=O)c2cc(-c3ccc(C)cc3)nc3n[nH]c(-c4ccc(F)cc4)c23)cc1	2%
O=C(CC(c1cccs1)N1Cc2ccccc2C1=O)Nc1cccc(F)c1 (stereo not given)	9%
Cc1ccc(OC(=O)c2cc(-c3ccccc3)nc3ccc(C)cc23)cc1	-4%
O=S(=O)(Nc1cccc(-c2ccc(N3CCCCCC3)nn2)c1)c1ccccc1	3%
COC(=O)c1ccc(NC(=O)CC2C(=O)N(c3ccc(Cl)cc3)C(=O)N2Cc2ccco2)cc1 (stereo not given)	2%
COc1ccccc1CNC(=O)c1cc2c(s1)-c1ccccc1OC2	-41%

Going on with the list:
SMILES	miR-21 FLuc
Cc1cccc(N(CC(=O)NCCSCc2ccccc2)S(=O)(=O)c2ccccc2)c1C	22%
COc1ccc(CNC(=O)CCCn2nc(C)c3sc4ccccc4c3c2=O)cc1OC	-29%
CCCSC1=NC2(CCN(C(=O)NC3CCCCC3)CC2)N=C1c1ccc(C)cc1	4%
O=C(NCCc1ccccc1)c1nc(-c2ccc(Cl)cc2)n2c1CCCCC2	11%
CCOc1ccccc1C(=O)N1CCc2cc(OC)c(OC)cc2C1COc1ccc2c(C)cc(=O)oc2c1 (stereo not given)	?
CCCCSc1nnc2c(n1)OC(c1ccc(Br)s1)N(C(C)=O)c1ccccc1-2 (stereo not given)	-1%
COC(=O)c1c(NC(=O)c2nc(SC)ncc2Cl)sc2c1CCCC2	1%
COc1ccc(C)cc1NCc1nnc2n1CCCCC2	-3%

Remaining list, next part:
SMILES	miR-21 FLuc
COCc1cc(C)nc2sc3c(c12)NC(c1ccc(NC(C)=O)cc1)N(c1ccc(C)cc1)C3=O (stereo not given)	-14%
O=c1oc2c(CN3CCCC3)c(O)ccc2cc1-c1ccccc1	-30%
CCN1C(=O)CC(C(=O)Nc2ccc(OC)cc2)SC1=Nc1ccc(C)c(C)c1 (stereo not given)	-5%
Cc1cc(F)ccc1S(=O)(=O)Nc1ccc2c(c1)CCCN2C(=O)c1cccs1	13%
c1ccc(CSc2nnc(C3CCNCC3)o2)cc1	-5%
Cc1c(Cl)cccc1-c1ccc(C(=O)Nc2ccc(F)cc2)o1	11%
COC(=O)c1c(C)sc(-c2c(-c3ccc4c(c3)OCCO4)[nH]c3c2c(=O)[nH]c(=O)n3C)c1O	2%
COc1ccccc1NC(=O)CSc1oc(-c2ccco2)nc1S(=O)(=O)c1ccc(Br)cc1	9%

Continuation.
SMILES	miR-21 FLuc
COCCCNC(=O)C1CCN(C(=O)c2cc3sccc3n2Cc2ccc(Cl)cc2)CC1	28%
COc1ccc(-c2noc(N(c3nc(-c4ccc(OC)c(OC)c4)no3)c3ccccc3OC)n2)cc1OC	-11%
COc1ccc(Cl)cc1NC(=O)NCc1noc2ccccc12	-5%
CCOC(=O)c1c(C)[nH]c(CCC(=O)NCCCN2CCN(c3cccc(Cl)c3)CC2)c1C	26%
N#Cc1ccccc1Cn1c(=O)n(-c2cccc(C(F)(F)F)c2)c(=O)c2sccc21	-1%
COc1ccc(OC)c(NC(=O)Cn2c(=O)n(Cc3ccco3)c(=O)c3cc(OC)c(OC)cc32)c1	1%
CC(C)(C)OC(=O)N1CCC(c2c(C(=O)NCc3cccs3)cnn2-c2ccc(F)cc2F)CC1	?
COc1cccc(OC)c1C(=O)Nc1nc2c(s1)CCc1ccccc1-2	-1%

Taken from above.
miR-21 FLuc, Cc1c(Cl)cccc1-c1ccc(C(=O)Nc2ccc(F)cc2)o1 = 11%
miR-21 FLuc, O=C(CC(c1cccs1)N1Cc2ccccc2C1=O)Nc1cccc(F)c1 (stereo not given) = 9%

New compounds follow:
SMILES	miR-21 FLuc
O=C(C1CCN(c2ncnc3c2nc2n3CCCCC2)CC1)N1CCN(c2ccccc2)CC1	13%
Cc1oc2ncnc(N3CCCCC3)c2c1C(=O)N1CCN(c2ccc(Cl)cc2)CC1	2%
Cc1cc(C(=O)N2CCN(c3cc(Cl)ccc3C)CC2)c2c(C)nn(-c3ccccc3)c2n1	6%
COCCCNC(=O)c1oc2c(c1C)-c1nn(Cc3cccc(Cl)c3)cc1CC2	12%
COc1cc(-c2nnc(SCC(=O)NCc3ccccc3Cl)o2)cc(OC)c1OC	4%
CCn1cnc2c(=O)oc3ccc(S(=O)(=O)N4CCN(c5cc(C)ccc5C)CC4)cc3c21	0%
Cc1ccc(C)c(N(C)C(=O)C2CCN(c3ncnc4c3nc3n4CCCCC3)CC2)c1	28%
Cc1ccc(CCNC(=O)CN(c2ccc(C(C)C)cc2)S(=O)(=O)c2c(C)nn(C)c2C)cc1	2%

(cont.)
SMILES	miR-21 FLuc
CCOc1cccc(C2Nc3ccccc3-c3cc(C)nn32)c1O (stereo not given)	-15%
COc1ccc2cc(CNc3ccc(C)cc3)c(=O)n(CC(=O)Nc3cccc(Cl)c3C)c2c1	-8%
CCCCN(CCCC)S(=O)(=O)c1ccc2oc(C(=O)NCc3ccc(C)cc3)c(C)c2c1	14%
COc1ccc(NC(=O)N2CCc3c(sc4c3CCCC4)C2c2ccc(F)cc2)cc1 (stereo not given)	8%
CCc1ccc(C(c2ccccc2)c2c(C)[nH]c3ccccc23)s1 (stereo not given)	0%
CCOc1ccccc1Nc1sc(C(=O)c2ccc(Cl)cc2)c(N)c1S(=O)(=O)c1ccccc1	13%
COc1ccc(Nc2ncnc3c2cnn3-c2ccc(C)cc2)cc1Cl	-54%
COc1ccc(C(=O)NCCSc2c(C)[nH]c3ccccc23)cc1	12%

Reprinted from the results shown for reference:
SMILES	miR-21 FLuc
CCOc1cccc(C2Nc3ccccc3-c3cc(C)nn32)c1O (stereo not given)	-15%
COc1ccc2cc(CNc3ccc(C)cc3)c(=O)n(CC(=O)Nc3cccc(Cl)c3C)c2c1	-8%
CCCCN(CCCC)S(=O)(=O)c1ccc2oc(C(=O)NCc3ccc(C)cc3)c(C)c2c1	14%
COc1ccc(NC(=O)N2CCc3c(sc4c3CCCC4)C2c2ccc(F)cc2)cc1 (stereo not given)	8%
CCc1ccc(C(c2ccccc2)c2c(C)[nH]c3ccccc23)s1 (stereo not given)	0%

Remaining list, next part
SMILES	miR-21 FLuc
Cc1ccc(Nc2ccc(N3CCN(C(=O)c4cccc([N+](=O)[O-])c4)CC3)nn2)cc1	2%
CCCOc1ccc(NC(=O)CC2C(=O)N(c3ccc(C)cc3)C(=O)N2C(C)C)cc1 (stereo not given)	26%
CCc1cccc(NC(=O)c2cc3c(=O)n(Cc4ccc(OC)cc4)ccc3nc2C)c1	14%
CCOC(=O)N1CCc2c(sc3c2c(=O)n(Cc2ccccc2)c(=O)n3Cc2ccccc2Cl)C1	-2%
CCCCn1cc(S(=O)(=O)c2ccccc2)c(=O)c2cc(F)c(N3CCN(CCC)CC3)cc21	-5%
Cc1cccc2c1N(Cc1ccccc1OCCC(C)C)C(=O)C2=O	?
O=c1c2sc3ccccc3c2n(Cc2cccc(Cl)c2)c(=O)n1Cc1ccco1	-7%
CCOCCCN1C(=O)CN(C2CCCCCC2)C(=O)C1c1ccc(OC(C)C)c(OC)c1 (stereo not given)	-14%

Next results
SMILES	miR-21 FLuc
CCOC(=O)c1ccccc1NC(=O)c1cc2c(s1)-c1ccccc1SC2	-5%
O=C(C1CCC(Cn2c(=O)c3sccc3n(Cc3cccc(F)c3)c2=O)CC1)N1CCCCC1 (stereo not given)	?
CCOC(=O)N1CCc2c(sc(NCc3cc(OC)ccc3OC)c2C(=O)Nc2cc(OC)ccc2OC)C1	-2%
COc1ccc(C)cc1NC(=O)C(=O)NCC(c1cccnc1)N1CCc2ccccc21 (stereo not given)	-3%
COc1ccc(-c2noc(CN(C)S(=O)(=O)c3c(C)cc(C)cc3C)n2)cc1OC	-1%
CCOc1ccc(C2C(=O)N(C3CCCCC3)CC(=O)N2CCC2=CCCCC2)cc1OC (stereo not given)	?
CCOC(=O)CNC(=O)c1cc2c(=O)n3cccc(C)c3nc2n1C	-9%
CC(C)N1C(=O)C(O)(c2c[nH]c3ccccc23)c2ccccc21 (stereo not given)	23%

More records follow.
SMILES	miR-21 FLuc
O=C(NC1CC1)c1ccc(Cn2c(SCc3cccc(F)c3)nc3cccnc32)cc1	-8%
Cn1nc(-c2ccccc2F)c2cc(C(=O)NCc3cccc(Cl)c3)sc21	13%
CCc1ccc(NS(=O)(=O)c2ccc3[nH]cc(C(=O)NCc4ccc(C)cc4)c(=O)c3c2)cc1	5%
CCN1CCN(c2ncc3c(n2)CCN(Cc2ccccc2C)C3)CC1	4%
Cc1cccc(N2CCN(S(=O)(=O)c3cn(C)c(C)n3)CC2)c1C	-19%
CCOc1ccc(CCNC(=O)c2ccc3nc(N4CCC(C)CC4)sc3c2)cc1OCC	-9%
CC(=O)Nc1ccc(NC(=O)CC(C)n2ccc(C)n2)cc1 (stereo not given)	24%
COc1ccccc1C(=O)Nc1ccc(NC(=O)c2cccs2)cc1	-13%

Six entries out of the list above, ordered by the value under miR-21 FLuc, ascending:
SMILES	miR-21 FLuc
Cc1cccc(N2CCN(S(=O)(=O)c3cn(C)c(C)n3)CC2)c1C	-19%
COc1ccccc1C(=O)Nc1ccc(NC(=O)c2cccs2)cc1	-13%
CCOc1ccc(CCNC(=O)c2ccc3nc(N4CCC(C)CC4)sc3c2)cc1OCC	-9%
CCN1CCN(c2ncc3c(n2)CCN(Cc2ccccc2C)C3)CC1	4%
Cn1nc(-c2ccccc2F)c2cc(C(=O)NCc3cccc(Cl)c3)sc21	13%
CC(=O)Nc1ccc(NC(=O)CC(C)n2ccc(C)n2)cc1 (stereo not given)	24%

(continued)
SMILES	miR-21 FLuc
O=C(CSc1nc2c([nH]c3ccccc32)c(=O)n1-c1ccccc1)Nc1ccc2c(c1)OCCO2	9%
Cc1cc(S(=O)(=O)NCC(c2ccc(N(C)C)cc2)N2CCOCC2)ccc1F (stereo not given)	-7%
CCOc1ccc(C2=NC(c3ccc(OC)cc3)=Nc3ccc(Cl)cc3N2)cc1	-63%
CCOc1ccccc1CNC(=O)c1cccn1-c1nnc(N2CCCC2)s1	-1%
COC(=O)c1sccc1S(=O)(=O)N1CCN(c2ccccc2)CC1	-5%
Cc1ccc(C)c(N2CCN(C(=O)c3cc(S(=O)(=O)N4CCC(C)CC4)cn3C)CC2)c1	17%
COc1ccc2cc3cc(C(=O)Nc4cc(C)c(Cl)cc4OC)oc3nc2c1	-1%
COc1ccc(-c2nnc(Nc3ccc(OCC(N)=O)cc3)c3ccccc23)cc1	2%

Further results
SMILES	miR-21 FLuc
COC(=O)c1ccc(NS(=O)(=O)c2ccc3[nH]c4c(c3c2)CCCC4)cc1	0%
COc1ccc(NC(=O)c2ncn(-c3ccccc3)n2)cc1Cl	-55%
COc1cccc(CNC(=O)C(Cc2ccccc2)NS(=O)(=O)c2ccc3c(c2)CCN3C(C)=O)c1 (stereo not given)	-2%
O=C(Cn1ncc2c3ccccc3n(Cc3ccccc3F)c2c1=O)NCCc1ccc(Cl)cc1	-1%
CCC(C)NC(=O)Cn1c(=O)n(-c2cc(OC)cc(OC)c2)c(=O)c2ccccc21 (stereo not given)	7%
CN1C(=O)c2ccccc2Sc2ccc(NC(=O)N3CCN(c4cccc(Cl)c4)CC3)cc21	?
CC(=O)c1cccc(NC(=O)Nc2c(C)n(C)n(-c3ccccc3)c2=O)c1	7%
CC1CCc2c(sc(NC(=O)c3ccc(Cl)cc3Cl)c2C#N)C1 (stereo not given)	-12%

The list goes on.
SMILES	miR-21 FLuc
CCOC(=O)c1ccc(NC(=O)c2c(NCc3cccs3)sc3c2CCCCC3)cc1	-32%
Cc1cc(C)cc(NC(=O)c2ncn(-c3ccccc3)n2)c1	-43%
Cc1cccc(NC(=O)c2cc(S(=O)(=O)N3CCc4ccccc43)ccc2F)c1C	2%
COc1ccc(CNC(=O)CCNS(=O)(=O)c2ccc3c(c2)CCCC(=O)N3)cc1	9%
CCOC(=O)C1CCCN(S(=O)(=O)c2ccc3[nH]c(=O)ccc3c2)C1 (stereo not given)	2%

High-throughput results as filed in PubChem BioAssay.

Only part of the results is shown; the hit share may differ from the screen's.
